Source: PubChem BioAssay
Mtb MbtI inh: MbtI salicylate synthase inhibition; inhibition, %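 (about 17 µg/mL by stock and volumes)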; P9WFX0; purified MbtI enzyme, fluorescence intensity read-out; 100,000 compounds, 0.89% hits;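 active = above 50% in both replicates, above 80% if mildly self-fluorescent; inactive = the rest, strongly fluorescent compounds included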;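 also: 0% = mean of negative and 100% = mean of positive controls; one replicate is shown; some compounds called inactive have numbers as strong as hits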
PV pol inh: inhibitors of poliovirus RNA polymerase binding and polymerization | poliovirus polymerase elongation, fluorescence polarization; active compounds read low | 150,000 compounds, 0.66% hits | P03300 | % elongation, % (compound at 16.7 µg/mL); in the data active = % elongation below about 90%; also: some results filed as inactive read as strong as hits
Target sequence (P03300 1749-2209 limits assumed): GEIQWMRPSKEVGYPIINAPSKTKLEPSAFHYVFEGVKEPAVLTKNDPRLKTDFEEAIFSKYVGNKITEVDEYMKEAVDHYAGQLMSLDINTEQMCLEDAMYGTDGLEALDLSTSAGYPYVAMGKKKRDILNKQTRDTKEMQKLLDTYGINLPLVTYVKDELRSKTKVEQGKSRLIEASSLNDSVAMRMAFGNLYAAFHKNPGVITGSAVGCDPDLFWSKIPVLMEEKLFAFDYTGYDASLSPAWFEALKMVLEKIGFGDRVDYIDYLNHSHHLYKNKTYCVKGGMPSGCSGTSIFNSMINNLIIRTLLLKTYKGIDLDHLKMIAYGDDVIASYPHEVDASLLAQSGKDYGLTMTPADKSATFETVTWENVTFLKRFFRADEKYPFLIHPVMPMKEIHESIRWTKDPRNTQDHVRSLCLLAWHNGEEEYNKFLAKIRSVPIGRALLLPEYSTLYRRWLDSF
Mtb MenB inh: Mtb MenB enzyme inhibition; P9WNP5; MenB enzyme assay, absorbance read-out; some hits fall short of the stated cut; inhibition, %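 (about 12 µg/mL by stock and volumes)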; 100,000 compounds, 0.43% hits; AID 540299;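 active = mean of two replicates above 30%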;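 also: 0% = no compound and 100% = wells with inactive enzyme; the first replicate is given; strong numbers were not always called active; inactives centre near -10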
Target sequence (P9WNP5 whole entry, looked up): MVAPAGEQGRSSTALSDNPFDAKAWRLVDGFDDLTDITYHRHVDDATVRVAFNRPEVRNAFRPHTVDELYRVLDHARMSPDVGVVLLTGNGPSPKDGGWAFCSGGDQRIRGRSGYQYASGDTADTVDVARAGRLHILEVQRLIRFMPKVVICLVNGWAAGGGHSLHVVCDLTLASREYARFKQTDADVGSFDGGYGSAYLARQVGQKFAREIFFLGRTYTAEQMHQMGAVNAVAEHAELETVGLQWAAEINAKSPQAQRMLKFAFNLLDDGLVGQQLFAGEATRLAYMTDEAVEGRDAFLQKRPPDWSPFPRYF
PV pol inh intensity: second read-out of PV pol inh, no call of its own (marks repeat the call); % elongation; measured here: total intensity read-out; formula for this scale not given here;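 total fluorescence in place of polarization; lower means less elongation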
Active calls of the source: *; / = no result given.

Every second line gives: Mtb MbtI inh	PV pol inh	PV pol inh intensity	Mtb MenB inh
> Cc1cc(Nc2ncc(Cl)cc2Cl)n(-c2ccccn2)n1
  -10	101	96	/
> Cc1cc(C)c(C(=O)N2Cc3ccccc3NC2=S)c(C)c1
  /	104	105	-16
> O=C(NC1CC1)c1cccc(C(F)(F)F)c1
  -3	108	107	-12
> O=C(NCCCn1ccnc1)C1(c2cccs2)CCOCC1
  15	104	106	-2
> CC(C)CCNC(=O)Cc1ccc(-n2c(=S)[nH]c3ccccc3c2=O)cc1
  6	101	99	-27
> CCN(C(=O)C12CCC(C)(C(=O)C1)C2(C)C)c1ccccc1 (stereo not drawn)
  -8	100	101	-2
> O=C(Nc1cccc(Cl)c1Cl)N1CCCN(Cc2ccc(F)cc2)CC1
  -5	104	96	-10
> COc1cccc(-c2cc(C(=O)Nc3cnn(C45CC6CC(CC(C6)C4)C5)c3)on2)c1
  -10	101	103	-27
> CC1CC(CC(=O)NNc2nc(-c3ccccc3)cs2)C(=O)O1 (stereo not drawn)
  2	106	102	-7
> O=c1ccc2ccc(O)cc2o1
  116	95	109	-18
> COc1ccc2c(c1)NC(c1cccnc1)=NC(c1ccccc1)=N2
  2	100	101	19
> N#CCOC(=O)c1ccc2c(c1)S(=O)(=O)c1ccccc1C2=O
  10	98	105	5
> CSc1nnc(-c2ccncc2)n1C
  -7	102	102	7
> Cc1ccc2nc(COC(=O)C3CCN(c4ccc(C(F)(F)F)cn4)CC3)cc(=O)n2c1
  -12	102	107	-2
> c1ccc(-c2nc(Cc3nc4ccccc4[nH]3)no2)cc1
  5	102	109	-9

Every second line gives: Mtb MbtI inh	PV pol inh	PV pol inh intensity	Mtb MenB inh
> O=C(O)/C=C1\SC(=O)N(Cc2ccccc2)C1=O
  17	102	109	-6
> COC(=O)Cn1c(Cc2ccccc2)nc2ccccc21
  /	107	123	-4
> C/C1=C\C(O)C(C(C)C)C(O)C/C(C)=C/CC1 (stereo not drawn)
  /	106	110	-27
> Cc1cccc(OCc2nn[nH]n2)c1C
  -9	105	103	-30
> Cc1c(C(=O)N2CCN(c3ccccc3)CC2)sc2nc[nH]c(=O)c12
  -12	103	101	-21
> O=S(=O)(c1ccc(Cl)cc1)N(Cc1ccco1)CC(O)Cn1c2ccccc2c2ccccc21 (stereo not drawn)
  28	105	108	-18
> COc1ccc(NC(=O)CC2SC(=Nc3ccccc3)N(c3ccccc3)C2=O)cc1 (stereo not drawn)
  -1	103	98	-23
> CC(=O)Nc1nc(C2COc3ccccc3O2)cs1 (stereo not drawn)
  -8	101	101	12
> Cc1cc(SCC(=O)NC2CCS(=O)(=O)C2)nc2ccccc12 (stereo not drawn)
  -1	103	106	-5
> O=C(Nc1ccc(-c2ccccc2)cc1)c1ccc(Br)o1
  -5	99	104	-21
> COC(=O)c1ccc(S(=O)(=O)NC(C)(C)C)n1C
  -7	101	105	-13
> CN(C)c1ccc2cccc(O)c2n1
  -57	101	102	-15
> CC(C)C(O)(C#CCN1CCOCC1)C(C)C
  -9	102	101	-10
> CCC1C(=O)C(C)(C)C(=O)OC1c1ccc(Cl)cc1 (stereo not drawn)
  0	100	99	-23
> CN(C(=O)c1ccn[nH]1)C1CC(C)(C)N(C)C(C)(C)C1
  /	109	110	0

Every second line gives: Mtb MbtI inh	PV pol inh	PV pol inh intensity	Mtb MenB inh
> COc1ccccc1CN(Cc1cccs1)C(=O)C1CCCN1C(=O)c1cccs1 (stereo not drawn)
  5	100	100	-8
> Cc1ccc(-c2onc3ccc(Br)cc23)cc1
  10	103	101	22
> CCOc1cc(C2=NS(=O)(=O)c3ccccc3N2)cc(OCC)c1OCC
  27	100	107	-1
> CN(C)CCNC(=O)c1ccc2c(c1)OCO2
  66	102	102	-28
> O=C(CCN1C(=O)c2ccccc2C1=O)NCc1ccco1
  11	101	97	8
> COC(=O)c1c(C)c(=O)[nH]c2ccccc12
  12	103	105	-16
> CNC(=S)N(CCO)Cc1cc2cc3c(cc2[nH]c1=O)OCCO3
  -221	101	101	12
> COP1(=S)/C(=C2/N(C)c3ccccc3C2(C)C)C=NN1C (stereo not drawn)
  100*	70*	80*	-82
> O=C1/C(=C/c2ccccc2)Nc2ccccc21
  -2	77	195	-105
> CC1CC(C)CN(S(=O)(=O)c2ccc(/C(O)=C(\C#N)c3nc4ccccc4s3)cc2)C1 (stereo not drawn)
  -3	103	105	-16
> COc1ccc(C(=O)OCC(N)=O)cc1OC
  12	100	103	-16
> CCOC(=O)/C(C)=N/Nc1ccc(F)cc1
  6	100	101	8
> CCN1CCCC1CNS(=O)(=O)c1ccc(F)cc1F (stereo not drawn)
  3	104	96	10
> Cc1ccc(OCC(=O)n2c(SCc3ccc(F)cc3)nc3ccccc32)cc1
  -4	100	102	-9
> CN(C)c1ccc(/C=C2\CCCC3C2=NN(C(=O)c2ccco2)C3c2ccc(N(C)C)cc2)cc1 (stereo not drawn)
  -35	104	111	-84

Compounds from the list above that have a CF3 group:
Every second line gives: Mtb MbtI inh	PV pol inh	PV pol inh intensity	Mtb MenB inh
> O=C(NC1CC1)c1cccc(C(F)(F)F)c1
  -3	108	107	-12
> Cc1ccc2nc(COC(=O)C3CCN(c4ccc(C(F)(F)F)cn4)CC3)cc(=O)n2c1
  -12	102	107	-2

(continued)
Every second line gives: Mtb MbtI inh	PV pol inh	PV pol inh intensity	Mtb MenB inh
> C=CCn1c(SCC(=O)NC(=O)C2COc3ccccc3O2)nnc1-c1ccccc1 (stereo not drawn)
  -3	104	111	1
> O=C(Nc1cccc(-c2ccc(N3CCCC3)nn2)c1)c1ccccc1
  10	105	103	-27
> Cc1cc(C(F)F)n2nc(C(=O)Nc3ccc(C)c(C)c3)nc2n1
  7	103	99	-52
> CCc1ccc2occ(CC(=O)Nc3ccc(Cl)cc3)c2c1
  -5	103	108	-21
> COc1cc(/C=N/O)cc(OC)c1OC
  /	100	110	-39
> CC1CCC(NC(=O)Cn2ncn3c(cc4sccc43)c2=O)CC1 (stereo not drawn)
  -4	98	99	3
> CC1CCN(C(=O)CN2N=C(c3ccccc3)CCC2=O)CC1
  4	103	104	7
> O=C(O)/C(=C\c1cccs1)c1ccccc1
  /	97	103	-12
> CCCCN(C)S(=O)(=O)c1ccc2c(c1)OCCN2C(C)=O
  -9	104	106	-5
> CC(C)NC(=O)C1COc2ccccc2O1 (stereo not drawn)
  /	110	107	-1
> CC(C)CC(=O)NC1(C(F)(F)F)NC(=O)N(CC(C)C)C1=O (stereo not drawn)
  -4	101	100	-7
> NC(=O)CSc1nnc(Cc2cccs2)n1C1CCCCC1
  -6	104	104	-3
> O=C(Oc1ccc(N(Cc2ccco2)C2=NS(=O)(=O)c3ccccc32)cc1)c1ccco1
  11	102	103	-3
> Cc1ccc(CNS(=O)(=O)c2ccc3oc(=O)c4ncn(C)c4c3c2)cc1
  10	104	97	-29
> CC(=O)OC(C(=O)NCc1ccco1)c1ccncc1 (stereo not drawn)
  -9	103	103	-69

Every second line gives: Mtb MbtI inh	PV pol inh	PV pol inh intensity	Mtb MenB inh
> O=C(/C=C/c1ccccc1)Nc1cc2c(ccc3ccccc32)oc1=O
  -2	103	105	-1
> Cc1ccc(NC(=S)Nc2cccnc2)c(S(=O)(=O)N2CCOCC2)c1
  2	100	109	-14
> CC(Sc1nnc(COc2ccccc2)n1C)C(=O)Nc1nccs1 (stereo not drawn)
  -1	100	103	-67
> O=C1CCCc2cc(S(=O)(=O)N3CCCC3=O)ccc2N1
  6	101	102	12
> O=C(CSc1cc(C(F)(F)F)c2cc3c(cc2n1)OCO3)NCCN1CCOCC1
  -18	/	/	-5
> CC(C)(C)P(=NC(=S)NCc1ccccc1)(N1CCOCC1)N1CCOCC1
  3	100	104	-10
> CC(C)C(=O)Nc1ccc(C(=O)O)cc1
  4	100	100	-44
> O=C1CC(c2ccc(F)cc2)CC(O)=C1C=NCCN1CCNCC1 (stereo not drawn)
  7	101	104	11
> NC(=O)c1ccccc1OCc1nnc(-c2ccccc2Br)o1
  -38	99	93	-10
> CCCNc1ccccc1OCC
  4	103	103	-24
> CC(=O)N[C@@H](C)C(=O)NCc1ccc2c(c1)OCO2
  2	101	94	-25
> Cc1c(Cl)cccc1NN
  /	100	101	-11
> CCOC(=O)c1c(CN2CCOCC2)[nH]c(C(=O)OCc2ccccc2)c1C
  /	109	111	-11
> O=C(Cn1nc(-c2ccccc2)c2ccccc2c1=O)NCCO
  -4	105	103	-18
> CCN(c1ccccc1)S(=O)(=O)c1ccc2[nH]cc(C(=O)NCCOC)c(=O)c2c1
  -47	100	104	9

20 compounds out of the list, ordered by number of heavy atoms, high to low:
Every second line gives: Mtb MbtI inh	PV pol inh	PV pol inh intensity	Mtb MenB inh
> CN(C)c1ccc(/C=C2\CCCC3C2=NN(C(=O)c2ccco2)C3c2ccc(N(C)C)cc2)cc1 (stereo not drawn)
  -35	104	111	-84
> O=S(=O)(c1ccc(Cl)cc1)N(Cc1ccco1)CC(O)Cn1c2ccccc2c2ccccc21 (stereo not drawn)
  28	105	108	-18
> CC1CC(C)CN(S(=O)(=O)c2ccc(/C(O)=C(\C#N)c3nc4ccccc4s3)cc2)C1 (stereo not drawn)
  -3	103	105	-16
> CCN(c1ccccc1)S(=O)(=O)c1ccc2[nH]cc(C(=O)NCCOC)c(=O)c2c1
  -47	100	104	9
> CC(C)CCNC(=O)Cc1ccc(-n2c(=S)[nH]c3ccccc3c2=O)cc1
  6	101	99	-27
> O=C(/C=C/c1ccccc1)Nc1cc2c(ccc3ccccc32)oc1=O
  -2	103	105	-1
> CC(Sc1nnc(COc2ccccc2)n1C)C(=O)Nc1nccs1 (stereo not drawn)
  -1	100	103	-67
> CC1CCC(NC(=O)Cn2ncn3c(cc4sccc43)c2=O)CC1 (stereo not drawn)
  -4	98	99	3
> Cc1cc(SCC(=O)NC2CCS(=O)(=O)C2)nc2ccccc12 (stereo not drawn)
  -1	103	106	-5
> CCCCN(C)S(=O)(=O)c1ccc2c(c1)OCCN2C(C)=O
  -9	104	106	-5
> Cc1cc(Nc2ncc(Cl)cc2Cl)n(-c2ccccn2)n1
  -10	101	96	/
> CCN1CCCC1CNS(=O)(=O)c1ccc(F)cc1F (stereo not drawn)
  3	104	96	10
> CCC1C(=O)C(C)(C)C(=O)OC1c1ccc(Cl)cc1 (stereo not drawn)
  0	100	99	-23
> COC(=O)c1ccc(S(=O)(=O)NC(C)(C)C)n1C
  -7	101	105	-13
> CC(C)C(O)(C#CCN1CCOCC1)C(C)C
  -9	102	101	-10
> O=C(NC1CC1)c1cccc(C(F)(F)F)c1
  -3	108	107	-12
> CC(C)C(=O)Nc1ccc(C(=O)O)cc1
  4	100	100	-44
> CSc1nnc(-c2ccncc2)n1C
  -7	102	102	7
> CCCNc1ccccc1OCC
  4	103	103	-24
> O=c1ccc2ccc(O)cc2o1
  116	95	109	-18

(list continues)
Every second line gives: Mtb MbtI inh	PV pol inh	PV pol inh intensity	Mtb MenB inh
> CCOc1ccc(-n2nc3cc(C)c(NC(=O)c4ccc(Br)o4)cc3n2)cc1
  -14	100	103	-20
> Cc1ccc(C(C)(C)C)cc1S(N)(=O)=O
  -13	99	98	/
> CCOc1ccc(CCNC(=O)Nc2ccc(C)c(C)c2)cc1OCC
  -4	100	97	-25
> Cc1cc(C)c2nc(NC(=O)c3ccc(C#N)cc3)sc2c1
  4	99	102	-6
> CN(Cc1cccs1)C(=S)SCc1cccs1
  /	105	104	-19
> CCOC(=O)CSc1nc2ccc(Br)cc2c(=O)n1C
  -30	102	104	-18
> NCCCc1ccccc1Cl
  1	104	103	-18
> COC(=O)CCSc1ccc(C(=O)OC)cc1N
  -132	101	100	-13
> NCCc1c[nH]c2ccccc12
  -15	99	104	-4
> N#CCOC1OCCOC1OCC#N (stereo not drawn)
  -5	106	104	-9
> CCn1nnc2cc(C(=O)O)ccc21
  4	/	/	4
> CC1(C)Oc2ccccc2C2CC(c3ccccc3)=NN21 (stereo not drawn)
  11	136	148	-19
> O=c1oc2ccc(Br)cc2cc1-c1ccc(S(=O)(=O)N2CCOCC2)s1
  -20	103	107	-17
> Cc1noc(C)c1COc1cccc(C(F)(F)F)c1
  -18	102	101	-6
> O=C(c1ccccc1)c1nc2ccccc2oc1=O
  1	47	246	-19

Every second line gives: Mtb MbtI inh	PV pol inh	PV pol inh intensity	Mtb MenB inh
> CCN1CCN(CCCNC(=S)Nc2ccc3nc(N4CCN(C)CC4)cc(C)c3c2)CC1
  -7	100	103	-8
> CC(C)(C)C(=O)Cn1nnc(-c2cccc(C(F)(F)F)c2)n1
  -11	106	107	-18
> CN(C)c1ccc(/C=C/C=C2C(=O)c3ccccc3C2=O)cc1
  13	100	103	3
> CCOC(=O)C1=C(CN2CCC(C)CC2)NC(=O)NC1c1cccs1 (stereo not drawn)
  -6	101	105	6
> CN1/C(=C\C(=O)COc2ccc(C(N)=O)cc2)C(C)(C)c2ccccc21
  4	133	152	-2
> O=C(c1ccco1)N1CCN(C(=O)c2cc(-c3ccc(F)cc3)no2)CC1
  20	101	98	10
> CN(Cc1ccccc1)C(=O)CSc1nnc(-c2ccccc2)o1
  -5	99	102	7
> Cc1cc(NCCN)nc2ccccc12
  90	98	103	16
> CNC(=O)CSc1nnc2[nH]c(=O)cc(C)n12
  23	100	101	15
> COC(=O)CSc1nnc(-c2ccco2)n1Cc1ccco1
  4	102	101	-29
> Cc1cc(C)c2c(=O)n(CC(=O)N3CCCCCC3)sc2n1
  98	107	110	-43
> CC(C)P(c1ccc(C#N)cc1)C(C)C
  /	101	101	-10
> O=C(Nc1nc(-c2cccs2)c(-c2cccs2)s1)C1(c2ccccc2)CC1
  57	103	101	-5
